# Source: PubChem BioAssay
# gsp antag – antagonizes gsp, the McCune-Albright syndrome mutation; gsp-mutant cells, cAMP HTRF, 30 min; control for the full effect not named in the record; Potency, µM (doses to about 76.9 µM), without a hit: at the top dose activity change, negative = inhibition, actives largely listed as inhibitors; actives 0.4% (n = 340,000); AID 624288; active = falling curve of any shape with a large fitted effect; inconclusive = falling curve, mostly with a smaller effect; inactive = flat or rising curve; cell line not stated here;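 further: intracellular cAMP measured with PDE inhibitor Ro 20-1724 present during compound exposure; potency means the concentration at half of the fitted maximal effect; on the % scale 0 is the no-effect control and ±100 the full control effect; nearly all actives have a fitted effect of over 65% in size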
#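 Measurement of cellular cAMP by homogeneous time-resolved fluorescence following a 30 min compound exposure at 37C. The PDE inhibitor […] was present throughout; the assay buffer was DPBS with 0.05% BSA and 0.005% Tween 20.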
# ClpP mod – qHTS Assay for Activators of ClpP | purified B. subtilis ClpP, FRET peptide cleavage, 20 min | Potency, µM (highest dose often 57.5 µM), inactives show at the highest dose activity change, negative = active | actives 1.9% (n = 340,000); active = well fitted falling curve with a large enough effect; inconclusive = small, poorly fitted or top-dose-only effect; inactive = no such curve, though single readings can be large or run the other way; further: potency means the concentration at half of the fitted maximal effect; the source files actives as falling curves though it sought activators and does not explain the sign; nearly all actives have a fitted effect of over 65% in size; many hits overshoot -100%
# Target sequence (P80244 whole entry, looked up): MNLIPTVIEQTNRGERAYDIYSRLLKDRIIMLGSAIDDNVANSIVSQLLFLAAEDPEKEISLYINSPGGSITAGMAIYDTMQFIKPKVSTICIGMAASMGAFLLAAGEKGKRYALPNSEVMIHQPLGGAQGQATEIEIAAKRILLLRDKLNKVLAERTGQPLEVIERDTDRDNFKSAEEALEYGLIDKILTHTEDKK
#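 FRET quenching reversal measured ClpP activation: 10 microg/mL B. subtilis ClpP at pH 8 with the FRET-FV decapeptide, read at 430 nm after 320 nm excitation. The 20-min minus 0-min signal was scaled between DMSO/no-enzyme wells and ADEP (5.8 microM final).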
# TRPML1 ag – activates the human TRPML1 channel; TRPML1-expressing cells, Ca2+ dye fluorescence, FDSS; host cell line not named in the record; reference of the full effect not given here; Q9GZU1; activation, % (test concentration not listed); actives 0.12% (n = 410,000); in the data active = activation above about 50%; inconclusive = about 30% to 50%; inactive = below about 30%; further: 0% is about no effect; the text of the record puts the active cut at 80%
# Target sequence (Q9GZU1 whole entry, looked up): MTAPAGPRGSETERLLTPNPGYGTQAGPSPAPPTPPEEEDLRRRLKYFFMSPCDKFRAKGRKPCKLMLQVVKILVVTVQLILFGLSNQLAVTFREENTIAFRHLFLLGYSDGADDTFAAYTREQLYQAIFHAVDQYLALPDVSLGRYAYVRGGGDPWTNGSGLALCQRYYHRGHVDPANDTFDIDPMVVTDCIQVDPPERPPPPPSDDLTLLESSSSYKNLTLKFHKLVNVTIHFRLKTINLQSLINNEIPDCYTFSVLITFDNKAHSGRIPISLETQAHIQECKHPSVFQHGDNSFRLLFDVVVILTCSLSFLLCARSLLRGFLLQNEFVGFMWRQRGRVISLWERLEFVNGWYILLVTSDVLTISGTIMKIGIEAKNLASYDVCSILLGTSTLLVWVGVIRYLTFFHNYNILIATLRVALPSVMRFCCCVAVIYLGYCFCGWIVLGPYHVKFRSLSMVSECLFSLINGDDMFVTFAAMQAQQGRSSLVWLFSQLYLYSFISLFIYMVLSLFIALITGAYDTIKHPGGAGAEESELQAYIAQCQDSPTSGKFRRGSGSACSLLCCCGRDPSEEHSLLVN
#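 Tetracycline-induced TRPML1-DL cells are seeded and incubated overnight before loading with a no-wash Ca2+ dye and quencher. Agonist activity is taken from the 110 s fluorescence read following compound pin-transfer on an FDSS, before EC80 54-4 challenge.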
# gsp agonist – gsp mutant agonism; AID 624287; Potency, µM (series often up to 76.9 µM), without a hit: at the top dose activation (cAMP increase), hits mostly activators; gsp mutant cells, cAMP HTRF, 30 min; control for the full effect not named in the record; actives 0.13% (n = 340,000); active = well fitted activation curve with a large enough effect; inconclusive = small, poorly fitted or top-dose-only effect, or another doubt; inactive = no such curve, though single readings can be large or run the other way; cell line not stated here;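 further: phosphodiesterase inhibitor Ro 20-1724 added with compounds to block cAMP breakdown; potency means the concentration at half of the fitted maximal effect; nearly all actives have a fitted effect of over 60% in size; about a fifth of the inactives were tested at one dose only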
#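 Cells in DMEM/10% FBS with G418 were pretreated with compounds in DMSO plus […] (300 uM stock) for 30 min at 37C. cAMP was measured by HTRF (cAMP-d2 plus anti-cAMP antibody-K) after 30 min at room temperature.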
# Menin-MLL FL inh – displaces fluorescein MLL peptide from human menin; Fluorescence polarization, fluorescein-MLL peptide displacement from menin; FP activity change, % at 61.4 µM; 290,000 tested, under 10 active; inconclusive = falling polarisation curve, or a change in total fluorescence; inactive = total fluorescence flat and polarisation flat or rising; no compound was filed as active; the % refers to the polarisation; negative = inhibition;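 further: % of control where 0% means no effect; inhibitors lower the polarisation; unlabelled MLL peptide was the positive control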
# TRPML1 inh – inhibitors of human TRPML1 channel | TRPML1-inducible cells, Ca2+ dye fluorescence, FDSS; active compounds read low; inhibition of EC80 agonist-evoked calcium signal | actives 0.02% (n = 390,000) | Q9GZU1 | activity change, negative = inhibition, % (test concentration not listed); in the data active means activity change below about -50%; inconclusive means about -30% to -50%; inactive means above about -30%;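 further: stimulus is agonist 54-4 at its EC80 concentration; on the % scale 0 is the no-effect control and ±100 the full control effect; compound concentration not given in the record; the text of the record puts the active cut at -80%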
#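 Tet-induced TRPML1-DL cells loaded with Ca8 no-wash calcium dye were read kinetically on FDSS. Compound addition was followed by EC80 agonist 54-4 (4 uM final); inhibition was read over 110 s.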
# Starred values were filed as active, the others as inactive; ? = inconclusive; / = no result given; [ ] = dose if it differs, or a comment.
# Start of the data: the first 6 records (preview)
# Value order: gsp antag, ClpP mod, TRPML1 ag, gsp agonist, Menin-MLL FL inh, TRPML1 inh
- Nc1ccc(-c2nc3ccccc3o2)cc1
 : 7%, 3.6%, 0.8, -18%, ?, 8
- CCC1Oc2ccccc2N(CC(=O)NCCCN2CCCC2)C1=O (configuration not stated)
 : -1%, -0.4%, 0.4, ?, -4.2, 34
- COc1ccccc1NC(=O)COC(=O)c1c(C)nn(-c2ccccc2)c1C
 : 32µM*, 0.6%, -0.1, 0%, /, 3
- Cc1ccccc1NCc1cccn1-c1nnc(N2CCOCC2)s1
 : /, 0.9%, 1.2, /, /, -4
- C#CCn1c(O)c(N=NC(=O)C(O)c2ccccc2)c2ccccc21 (configuration not stated)
 : 8%, /, 1.6, -17%[15.4 µM], 0.2, -18
- CCc1c(C)sc2c1CCN(C(=O)Nc1cc(C)cc(C)c1)C2c1ccccc1 (configuration not stated)
 : /, -2.3%, 3.7, /, /, 10

# Main list, previewed entries included:
# Value order: gsp antag, ClpP mod, TRPML1 ag, gsp agonist, Menin-MLL FL inh, TRPML1 inh
- Nc1ccc(-c2nc3ccccc3o2)cc1
 : 7%, 3.6%, 0.8, -18%, ?, 8
- CCC1Oc2ccccc2N(CC(=O)NCCCN2CCCC2)C1=O (configuration not stated)
 : -1%, -0.4%, 0.4, ?, -4.2, 34
- COc1ccccc1NC(=O)COC(=O)c1c(C)nn(-c2ccccc2)c1C
 : 32µM*, 0.6%, -0.1, 0%, /, 3
- Cc1ccccc1NCc1cccn1-c1nnc(N2CCOCC2)s1
 : /, 0.9%, 1.2, /, /, -4
- C#CCn1c(O)c(N=NC(=O)C(O)c2ccccc2)c2ccccc21 (configuration not stated)
 : 8%, /, 1.6, -17%[15.4 µM], 0.2, -18
- CCc1c(C)sc2c1CCN(C(=O)Nc1cc(C)cc(C)c1)C2c1ccccc1 (configuration not stated)
 : /, -2.3%, 3.7, /, /, 10
- Nc1ccc(C(=O)N/N=C\C=C\c2cccc([N+](=O)[O-])c2)cc1
 : -6%, -1.5%, 1.3, -2%, -0.3, 13
- COc1ccc(S(=O)(=O)N2CCN(C(=O)NC3CCCCC3)CC2)cc1
 : -2%, /, -0.4, 7%[15.4 µM], -0.8, 9
- CC(C)C[C@H]1CN=C(Nc2ccccc2)N1CC1CCC1
 : 8%, -1.1%, 0.4, 2%, -2.1, 31
- CCc1ccc(C(=O)c2cn(CC(=O)Nc3cccc(OC)c3)c3ccc(OC)cc3c2=O)cc1
 : /, -8.9%, 0.6, /, /, -1
- COc1ccc(CNC2=CC(=O)CC(C)(C)C2)cc1
 : 10%, -6.2%, -1.0, -20%, 0.5, -10
- CC(=O)NC1=NN(C(C)=O)C2(S1)C(=O)N(CC(C)C)c1ccc(C)cc12 (configuration not stated)
 : -6%, 0.4%, -0.2, ?, 2.7, -6
- COc1ccc(C(C(=O)NCC2CCCO2)N(C(=O)Cn2nnc3ccccc32)c2ccc(NC(C)=O)cc2)cc1 (configuration not stated)
 : 9%, /, -0.1, -10%, /, -12
- Cc1cc(C(=O)CSc2ncn[nH]2)c(C)n1-c1cccc(S(=O)(=O)N2CCOCC2)c1
 : -23%, 0.3%, 1.0, -22%, 7.1, -3
- O=C(Nc1ncc(Cl)cn1)c1cccs1
 : -2%[15.4 µM], -11%, 0.0, 1%, 0.0, -20
- O=C(O)c1ccccc1C(=O)NNC(=O)C(c1ccccc1)c1ccccc1
 : 9%, 0.2%, -0.4, -1%, /, 1
- CCOc1ccc(NC(=S)Nc2ccc(Br)cc2Cl)cc1
 : /, /, -0.2, -5%[15.4 µM], -0.9, -8
- COc1ccccc1-n1c(C)cc(/C=C2\C(=N)N3N=C(CC(=O)N4CCOCC4)SC3=NC2=O)c1C
 : 5%, 3.7%, 1.2, ?, /, 18
- Cc1sc2nc(CSc3n[nH]c(N)n3)[nH]c(=O)c2c1C
 : 2%, /, 1.1, 5%[15.4 µM], -1.6, -1
- CC(=O)c1cccc(NC(=O)c2cc(=O)[nH]c3ccc(S(=O)(=O)N4CCOCC4)cc23)c1
 : 14%, -0.3%, 0.3, -5%[15.4 µM], /, 0
- COc1ccc(C(=O)OCc2cc(=O)oc3c(C)c(C)ccc23)cc1S(=O)(=O)N1CCOCC1
 : /, -2.5%, 0.2, -47%[inhibitor], /, -4
- O=C(Nc1ccc(-c2nc3ccccc3s2)cc1)c1cc(-n2cnnc2)ccc1Cl
 : -14%, ?, -0.5, -7%, 9.8, -3
- Cn1cc(Cl)c(/C=C(\C#N)S(=O)(=O)c2ccccc2)n1
 : 7%, -16%, 1.2, 1%, 0.4, -13
- CCOC(=O)c1ccccc1NC1CC(=O)N(c2ccccc2C)C1=O (configuration not stated)
 : 4%, ?, 3.3, -22%, -3.7, 12
- Cc1cc(C(=O)N2CCN(c3ccccc3F)CC2)c2c(C)nn(-c3ccccc3)c2n1
 : /, ?, ?, /, /, -7
- CC(C)CC(=O)Nc1c(C(=O)N2CCN(c3ccccc3F)CC2)oc2ccccc12
 : /, -2.6%, 0.6, /, /, -2
- CCN(Cc1ccccc1)C(=O)c1ccc(CS(=O)c2ccccc2C)o1 (configuration not stated)
 : -9%, 0.8%, 0.6, 38%, /, 22
- COc1cc(C#N)ccc1OCC(=O)NCCC1=CCCCC1
 : 5%, -0.8%, -0.1, 0%, /, 14
- NNc1nc(N)c2c(n1)-c1ccccc1CC21CCCC1
 : -14%, /, -0.3, -28%, 5.9, -1
- O=C(NCCO)c1cc2c(s1)CCC2
 : 24%, -0.3%, -0.6, -7%, -0.3, -17
- Cc1cccc(-c2nsc(SCC(=O)NCc3ccco3)n2)c1
 : -16%, 0.4%, 1.7, -36%[inhibitor], -0.4, 0
- O=C(NCc1cccc(Cl)c1)C1CCN(c2nnc(N3CCCC3=O)s2)CC1
 : -10%, 2.2%, -0.7, ?, 1.2, 7
- COC(=O)c1ccccc1CC1Cc2cc3c(cc2C1=O)CCC3 (configuration not stated)
 : -2%, -5.9%, 5.0, -1%, /, 14
- C=CC(=O)Nc1ccc(Nc2ccnc(Nc3ccc(N4CCN(C)CC4)cc3)n2)cc1
 : -5%, -2.1%, 0.9, /, /, -2
- CC1CCCCN1CCCNC(=O)Cn1c(=O)c2cccn2c2ccccc21 (configuration not stated)
 : 15%, -13%, -0.7, ?, /, -7
- CC(C)CNC(=O)CN(C1CCCCC1)S(C)(=O)=O
 : 12%, 0.6%, 3.9, 26%, 3.0, 32
- C#CCOCCOCCOCCNc1nc(N2CCN(C(=O)CCCCCCCCCCNC(=O)[C@H](CCCCN)n3cc(C)nn3)CC2)nc(N2CCN(C(=O)CCCCCCCCCCNC(=O)[C@H](CCCN=C(N)N)n3cc(C[C@@H](C)CC)nn3)CC2)n1
 : -17%, -4.0%, 1.3, /, /, 3
- COc1cc(NC(=O)COc2ccc(-n3cnnn3)cc2)c(OC)cc1Cl
 : -4%, -4.5%, -0.7, 6%, 5.4, 16
- Cc1ccc(NC2c3ncccc3C(=O)N2c2ccccc2C)cc1C (configuration not stated)
 : -1%, -2.7%, -0.1, -11%, 8.0, -5
- Cc1ccc(C)c(OCc2nc3ccccc3[nH]2)c1
 : -11%, /, 1.3, 13%, 3.7, 10
- Cc1cccc(C(=O)Nc2ccccc2C(=O)OCC(=O)Nc2ccc(C#N)cc2)c1
 : -13%, 16µM*, 0.0, 9%, 11, -8
- COc1cc(C(=O)NCCc2ccc(F)cc2)c([N+](=O)[O-])cc1OC
 : 15%, 2.3%, 2.4, 0%, -0.7, -9
- Cc1ccc(C2/C(=C(/O)c3cnn(-c4ccccc4)c3C)C(=O)C(=O)N2CCN2CCOCC2)o1 (configuration not stated)
 : 0%, -0.9%, -0.4, -17%, -14, -4
- CCc1nnc(NC(=O)CSc2nc3c([nH]c4ccccc43)c(=O)n2CCOC)s1
 : -19%, -4.6%, -0.4, 7%[15.4 µM], /, 5
- COc1ccc(CNC(=O)CSc2nnc(Cn3nnc4ccccc43)n2C)cc1
 : 3%, 0.3%, 0.1, -46%, 1.5, -1
- CCOc1ccc2[nH]c(C)c(CN(C)C)c(=O)c2c1
 : 2%, 16µM*, 0.3, 13%, 3.0, -1
- C[N+](C)(C)CCCN(Cc1ccc2c(c1)OCO2)C(=O)NC1CCCCC1
 : 7%, -0.6%, 0.5, ?, -0.9, 16
- C=CCSC1=C(C#N)C(c2ccccc2OCC)C(C#N)C(=O)N1 (configuration not stated)
 : -2%, 0.5%, 0.9, -1%, -0.8, -11
- Cc1ccc(NC(=O)C(=O)NCc2ccc(/C=C(/C#N)C(=O)NCc3cccnc3)o2)cc1
 : -11%, 86%, 0.0, -6%, 27, 14
- CCOc1ccc(NC(=O)CN(C)C(=O)c2cccc(S(=O)(=O)N3CCCC3)c2)cc1OCC
 : 6%, /, -0.3, 23%[15.4 µM], /, 7
- COc1cccc(C(=O)N/N=C(\C)CC(=O)Nc2ccc(N(C)C)cc2)c1
 : ?, -3.5%, 0.0, -8%[15.4 µM], -2.5, -9
- COc1ccc(CC(=O)N2CCc3cc(OC)c(OC)cc3C2COc2ccc(F)cc2)cc1OC (configuration not stated)
 : /, -1.8%, 1.4, /, /, -14
- O=C(O)CC/C(=C\c1ccc(N2CCOCC2)c([N+](=O)[O-])c1)c1nc2ccccc2s1
 : -22%, 1.6%, 2.5, -1%, -2.0, 23
- CCOc1ccc(/C=C/c2nc(C#N)c(N3CCC(C)CC3)o2)cc1
 : /, 5.1%, 1.4, /, /, 1
- CCOC(=O)Cc1csc(NC(=O)C(C)(C)CC)n1
 : 5%, 1.6%, 0.4, -23%, 0.7, 1
- COc1ccc(C(=O)Nc2ccc(Cl)cc2C(=O)N2CCCC(C)C2)cc1OC (configuration not stated)
 : -21%, 0.5%, -0.4, -11%[15.4 µM], 6.9, 1
- COc1ccc2nc(NC(=O)C3CSC4(C)CCC(=O)N34)sc2c1 (configuration not stated)
 : 1%, -2.6%, -0.2, -9%, /, -26
- O=C(Nc1ccccc1O)c1csc2c1CCCC2
 : -11%, -1.0%, 0.1, -1%[15.4 µM], -0.8, 16
- CCOc1ccc(-c2cn3c(n2)sc2cc(C(=O)NCCC4=CCCCC4)ccc23)cc1
 : /, -20%, -0.6, /, /, -21
- O=C(OCc1ccc(F)cc1)c1ccc2c(c1)-c1ccccc1C2=O
 : -3%, -1.0%, -1.1, -27%, -1.9, 32

# (further entries)
# Value order: gsp antag, ClpP mod, TRPML1 ag, gsp agonist, Menin-MLL FL inh, TRPML1 inh
- CC(C)N1CC(C(=O)Nc2nc3ccccc3s2)CC1=O (configuration not stated)
 : -12%, -2.2%, 0.5, 4%, 3.9, 2
- COC(=O)c1ccccc1S(=O)(=O)NNC(=O)C1COc2ccccc2O1 (configuration not stated)
 : 0%, /, 1.1, 11%[15.4 µM], /, -10
- Cc1cc(C)cc(Nc2nc3ccccc3n3cnnc23)c1
 : /, -15%, 1.2, /, /, 14
- CCOC(=O)c1c(-c2cccc([N+](=O)[O-])c2)cn2ccccc12
 : -12%, /, 2.8, 8%, -9.1, 53
